Screens deposited in PubChem BioAssay by National Center for Advancing Translational Sciences (NCATS).
miR-21 reporter: miR-21 reporter, rising signal; HeLa miR-21 FLuc reporter, luciferase, 48 h; Potency, µM (top dose mostly 38.3 µM), inactives show at the top dose reporter change, positive = more light; 340,000 tested, under 10 active; AID 2288; active = well fitted rising curve with a large enough effect; inconclusive = small, poorly fitted or top-dose-only effect; inactive = no such curve, though single readings can be large or run the other way;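 note: % of control where 0% means no effect; miR-21 action dims this reporter so a rising signal means less miR-21 action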
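HeLa miR-21-FLuc reporter line, endogenous miR-21; 2000 cells/well in DMEM/10% FBS; compound titration up to ~40uM final, 48 h, 37 degree Celsius; luciferase detection reagent, 15 min lysis, CCD luminescence.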
The depositor's hits bear a star; ? = inconclusive. Only part of the results is shown (hit frequency here may not be typical).

A first look, six compounds:
miR-21 reporter,canonical_smiles
-26.3%,Cc1cccc2c1-c1sc(C(=O)Nc3ccc(F)cc3F)cc1CO2
5.5%,Cc1nn(-c2ccc(F)cc2)c(-n2cccc2)c1C(=O)N1CCN(c2ccccc2)CC1
8.8%,O=C(NCC(c1cccs1)S(=O)(=O)c1cccs1)c1ccc(F)c(F)c1 (stereo not given)
-4.8%,CCc1ccccc1NC(=O)CSc1nccn1C
7.3%,Nc1c(C(=O)Nc2ccccc2Cl)nnn1Cc1cccc(Cl)c1
-22.8%,Cc1ccc(NC(=O)Cn2c(-c3ccc4c(c3)OCO4)cn(-c3ccccc3)c2=O)cc1

The listing, from the start:
miR-21 reporter,canonical_smiles
-26.3%,Cc1cccc2c1-c1sc(C(=O)Nc3ccc(F)cc3F)cc1CO2
5.5%,Cc1nn(-c2ccc(F)cc2)c(-n2cccc2)c1C(=O)N1CCN(c2ccccc2)CC1
8.8%,O=C(NCC(c1cccs1)S(=O)(=O)c1cccs1)c1ccc(F)c(F)c1 (stereo not given)
-4.8%,CCc1ccccc1NC(=O)CSc1nccn1C
7.3%,Nc1c(C(=O)Nc2ccccc2Cl)nnn1Cc1cccc(Cl)c1
-22.8%,Cc1ccc(NC(=O)Cn2c(-c3ccc4c(c3)OCO4)cn(-c3ccccc3)c2=O)cc1
-6.5%,COc1ccc(NC(=O)c2c(NCc3cccs3)sc3c2CCC(C)C3)c(OC)c1 (stereo not given)
?,Cc1scc(C(=O)N/N=C/c2ccc([N+](=O)[O-])o2)c1C
-3.2%,CCOc1ccc2nc(NC(=O)c3nc(SC)ncc3Cl)sc2c1
-3.6%,COc1ccc(-c2cc(C(=O)Nc3cc(C)ccc3O)no2)cc1OC
-0.5%,Cc1cc(C(=O)O)c2c(=O)n(C)c(=O)n(C)c2n1
-6.6%,Cc1ccc(-n2nc(C(=O)N3CCCCC3)c(=O)n(C)c2=O)cc1
?,Cc1c(C(=O)Nc2ccc(F)c(F)c2)oc2ccc(S(=O)(=O)N3CCC4(CC3)OCCO4)cc12
15.4%,Cc1cccc(N2CCN(C(=O)C3CCCN(S(=O)(=O)c4ccc5c(c4)oc(=O)n5C)C3)CC2)c1C (stereo not given)
4.5%,Cc1cc(NC(=O)Nc2nnc(N3CCCCCC3)s2)ccc1Br
0.0%,CCOc1ccc(CCNC(=O)c2cc3c(=O)[nH]c4ccc(C)cc4c3s2)cc1OCC
23.2%,COc1cccc(N2CCN(C(=O)C3CCN(S(=O)(=O)c4cccc5nonc45)CC3)CC2)c1
-3.5%,COc1ccc(OC)c(NC(=O)C2CCCN(S(=O)(=O)c3ccc4[nH]c(=O)ccc4c3)C2)c1 (stereo not given)
-38.9%,Cc1c(Cl)cccc1NC(=O)c1ncn(-c2ccccc2)n1
16.0%,O=C(CN1C(=O)CC(c2ccccc2)Sc2ccccc21)Nc1cccc(Cl)c1 (stereo not given)
11.5%,CCc1ccc(NC(=O)c2cnn(-c3c(C)cccc3C)c2C2CCNCC2)cc1
2.8%,CCS(=O)(=O)N1CCc2cc(C(=O)Nc3cccc(Cl)c3C)ccc21
-48.1%,Cc1cc(NS(=O)(=O)c2cn(C)c(C)n2)ccc1Br
?,Cc1nn(-c2ccc(F)cc2)c(-n2cccc2)c1C(=O)NCCCN1CCN(c2cccc(Cl)c2)CC1
-7.5%,N#Cc1c(C(F)(F)F)cc(-c2cccs2)nc1SCC(=O)Nc1cccc(C(F)(F)F)c1
-7.5%,Cc1ccc(CNC(=O)c2cnc(N3CCCC3)nc2C)cc1
-11.5%,Cc1ccc(-c2cc(-c3coc4ccccc4c3=O)c3c(n2)-c2ccccc2OC3)cc1
-6.8%,Cc1cc(C(F)F)n2nc(C(=O)Nc3cc(Cl)ccc3C)nc2n1
4.4%,CCOC(=O)C1CCCN(S(=O)(=O)c2ccc3c(c2)CCCN3C(C)=O)C1 (stereo not given)
6.6%,CCC(=O)N1CCc2cc(Br)cc(S(=O)(=O)N3CCCC(C(=O)NCc4ccccc4)C3)c21 (stereo not given)
-6.5%,COc1ccc(C2CC(=O)c3cc(-c4nc(-c5cccc([N+](=O)[O-])c5)cs4)c(=O)n(-c4cccc(C)c4)c3C2)cc1 (stereo not given)
-2.1%,CCOc1ccc(C(=O)Nc2nnc(SCc3cc(=O)n4ccccc4n3)s2)cc1
-17.8%,CC(=O)c1cccc(N(C(=O)Cn2nnc3ccccc32)C(C(=O)NCc2ccccc2)c2ccc(F)cc2)c1 (stereo not given)
5.3%,O=C(c1ccc2c(c1)N(Cc1ccc(F)cc1)C(=O)c1ccccc1S2(=O)=O)N1CCCC1
18.9%,CNC(=O)COc1ccc(Nc2nnc(-c3ccc(C)c(S(=O)(=O)NC(C)(C)C)c3)c3ccccc23)cc1
-52.9%,CCOc1ccc(-c2ccc(CO)o2)cc1N
4.3%,CCOc1ccccc1C1C(C(=O)Nc2ccccc2)=C(C)Nc2nc(SCC(=O)c3ccc(C)cc3)nn21 (stereo not given)
-14.2%,CCOc1ccc(NC(=O)c2c(NCc3cc(OC)c(OC)cc3OC)sc3c2CCCC3)cc1
1.8%,Cc1cc(N(C)Cc2ccccc2)n2nc(-c3ccc(C(C)(C)C)cc3)nc2n1
?,CSc1ccccc1NC(=O)CCS(=O)(=O)c1nc(-c2cccs2)cc(C(F)(F)F)n1
-4.0%,CCOC(=O)c1cc2c(=O)n3ccccc3nc2n(CCCOC)c1=NC(=O)c1c(-c2ccccc2Cl)noc1C
-3.4%,Cc1oc(-c2cccc(Cl)c2)nc1CN1CCCC(C(=O)NCc2ccc(F)cc2)C1 (stereo not given)
-20.8%,Cc1ccc(-n2ncc3c(N4CCC(C)CC4)ncnc32)cc1C
-3.8%,CCOc1ccccc1NC(=O)CSc1nc(=O)[nH]c2c1CCCC2
5.8%,Cc1cccc(NS(=O)(=O)c2ccc3c(c2)n(C)c(=O)n3C)c1C
-8.4%,COc1ccc(CCCc2nnc(SCC(=O)Nc3cc(F)ccc3C)o2)cc1
-6.9%,COc1ccc2oc(=O)c(-c3cn4c(n3)sc3cc(F)ccc34)cc2c1
-8.0%,Cc1cc(C)c(NC(=O)Cn2nnc(-c3nc(-c4ccccc4)no3)c2N)c(C)c1
-3.2%,O=C(CN1C(=O)COc2ccc(Cl)cc21)Nc1ccc(F)cc1
10.6%,CCc1cccc(NC(=O)CN(C)S(=O)(=O)c2ccc3c(c2)CCCN3C(C)=O)c1

Carrying on.
miR-21 reporter,canonical_smiles
0.3%,COc1ccc(-n2c(=O)c3c4c(sc3n(Cc3ccc(C)cc3C)c2=O)CCC4)c(OC)c1
-19.0%,CCOc1ccc(NC(=O)Cn2ncc3c2-c2cc(C)ccc2OC3)cc1
4.3%,COc1ccccc1CNS(=O)(=O)c1cc(Br)cc2c1N(C(=O)C1CC1)CC2
6.1%,CC(=O)NCCNc1nc2c(S(=O)(=O)c3ccc(C)c(C)c3)nnn2c2ccc(Cl)cc12
13.9%,CC(C)c1ccc(N2C(=O)N(Cc3ccccc3Cl)c3ccccc3S2(=O)=O)cc1
0.2%,CC1CN(C(=O)N2CCC(C(=O)NCCC3=CCCCC3)CC2)c2ccccc2O1 (stereo not given)
2.7%,Cc1cccc(-c2noc(-c3ccc(N4CCCC4)c([N+](=O)[O-])c3)n2)c1
2.7%,COc1cc(OC)c(NC(=O)C2CCN(C(=O)c3sc4nc[nH]c(=O)c4c3C)CC2)cc1Cl
-0.2%,O=C(Cn1ncc2c3ccccc3n(Cc3ccc(Cl)cc3)c2c1=O)NC1CCCCCC1
3.9%,CCC(=O)C1=C(c2ccccc2)N(C(=O)CC)n2c(nnc2C2CCCCC2)S1
4.0%,Cc1cccn2c(=O)c(C(=O)N3CCN(c4ccc(Cl)cc4)CC3)cnc12
-2.5%,Cc1ccc(CNC(=O)CN2C(=O)CSc3ccc(S(=O)(=O)N4CCCC4)cc32)cc1
-0.4%,COc1cc(Cl)c(C)cc1NC(=O)CNC(=O)Cn1ccc2ccccc2c1=O
-7.8%,COc1ccc(-c2noc(CNC(=O)COc3cccc(C)c3C)n2)cc1
-34.5%,Cc1cccc(N(C)c2nc3ccc(C)cc3n3cnnc23)c1
-1.6%,Cc1ccc(N2CCN(Cc3nnc(-c4ccccc4F)o3)CC2)c(C)c1
-2.7%,CC(=O)C1=C(c2cccc([N+](=O)[O-])c2)N(C(C)=O)n2c(nnc2-c2ccc(C)cc2)S1
-2.2%,COC(=O)c1ccc(NC(=O)Cn2c(=O)oc3ccccc32)cc1
1.1%,O=C(Nc1ccc(C(F)(F)F)cc1)C1(c2cccs2)CCOCC1
-25.6%,Cc1cc(C)c2c(n1)SCCN2C(=O)Nc1ccc(C(=O)Nc2cc(Cl)ccc2C)cc1
15.2%,Cc1ccc(-n2c(=O)c3oc4ccccc4c3n(Cc3cccc(F)c3)c2=O)cc1C
-53.5%,Cc1ccc(OCc2nnc(-c3ccccc3)o2)cc1
1.0%,COc1ccc(OC)c(C2C(C(=O)c3ccco3)=C(O)C(=O)N2CCN2CCOCC2)c1 (stereo not given)
-3.3%,O=C(Nc1nonc1-c1ccc(Br)cc1)c1ccco1
1.2%,COc1c(Cl)cc(Cl)cc1C(=O)Nc1cccc(-c2nc3ccccc3o2)c1C

Gathered by group, the entries above with a CF3 group
miR-21 reporter,canonical_smiles
-7.5%,N#Cc1c(C(F)(F)F)cc(-c2cccs2)nc1SCC(=O)Nc1cccc(C(F)(F)F)c1
?,CSc1ccccc1NC(=O)CCS(=O)(=O)c1nc(-c2cccs2)cc(C(F)(F)F)n1
1.1%,O=C(Nc1ccc(C(F)(F)F)cc1)C1(c2cccs2)CCOCC1

Later entries
miR-21 reporter,canonical_smiles
-4.6%,COc1ccccc1/C=C(\C#N)c1nc(-c2cc3ccccc3oc2=O)cs1
-0.6%,COc1cc(OC)c(NC(=O)Cn2c(=O)cc(C(F)(F)F)c3c(C)nn(C)c32)cc1Cl
1.5%,O=C(NCCc1ccccc1)c1ccc(CSc2nc3ccncc3n2Cc2cccc(F)c2)cc1
-5.8%,C=Cc1ccc(Cn2c(=O)cc(C)c3c(C)nn(-c4ccccc4)c32)cc1
15.0%,CCN(C(=O)CSc1nc(-c2ccc(C(C)C)cc2)no1)c1cccc(C)c1
-1.1%,Cc1ccc(OCC(=O)Nc2ccc(OCc3cc(=O)n4ccsc4n3)cc2)cc1
0.8%,O=C(Nc1sc2c(c1C(=O)NCC1CCCO1)CCCC2)c1cc(=O)c2ccccc2o1 (stereo not given)
-13.5%,CCOc1ccc(-c2cc(C(=O)NC(C)c3ccccc3)c3ccccc3n2)cc1 (stereo not given)
18.2%,Cc1ccccc1NC(=O)c1ccc(F)c(S(=O)(=O)N(C)Cc2ccccc2)c1
-0.9%,Cc1ccc(-n2c(C)cc(C(=O)C(=O)Nc3ccccc3)c2C)c(C)c1
-2.1%,COc1ccc(-c2nsc(NC(=O)c3oc4ccccc4c3C)n2)cc1
21.7%,Oc1ccc(-c2nc3ccc(Cl)cn3c2Nc2ccc(Cl)cc2)cc1
-2.7%,CCOc1ccc(CCNC(=O)CCCc2nnc3n(C)c(=O)c4sccc4n23)cc1OCC
0.8%,CCOc1ccc(OCC(=O)Nc2c(C(=O)Nc3ccc(C)cc3)oc3ccccc23)cc1
-3.3%,CCOc1ccc(CNS(=O)(=O)c2ccc(-c3cc(C(F)(F)F)on3)s2)cc1
-4.3%,COc1ccc(Cl)cc1C(=O)Nc1nnc2n1CCS2
0.1%,O=C(Nc1ccc(C(=O)OCc2cc(=O)n3c4c(sc3n2)CCCC4)cc1)c1ccc(Cl)cc1
-0.4%,COCCNC(=O)CN1C(=O)CCn2nc(-c3cn(C)c4ccccc34)cc21
-6.8%,CCOc1ccc(NC(=O)N2CCN(c3ccc(Cl)c(Cl)c3)CC2)cc1
-3.6%,N#Cc1ccccc1NC(=O)C(=O)NCCc1csc(-c2ccc(F)cc2)n1
-5.8%,Cc1ccc(CNC(=O)c2nnc(Cc3cccc(F)c3)o2)cc1
27.2%,Cc1ccc(N(CC(=O)N2CCN(c3cccc(Cl)c3)CC2)S(=O)(=O)c2c(C)noc2C)cc1
9.2%,Cc1cccc(NC(=O)NCCOCCn2c(=O)oc3ccccc32)c1C
0.3%,COc1ccc2c(c1)c1c(c(=O)n(Cc3ccccc3)c(=O)n1CC(=O)Nc1c(C)cccc1C)n2C
-7.1%,Cc1c(C)n(Cc2ccccc2)c2ccc(C(=O)N3CCN(c4ccc(F)cc4)CC3)cc12
17.2%,CCN(CC)c1ccc(C(=O)N2CCC(c3ccncc3)CC2)cc1
3.3%,CN(C)c1ccc(CNC(=O)c2cnc3sc(N4CCCC4)nn3c2=O)cc1
-0.2%,CCCCN1C(=O)/C(=C2/Sc3ccc(Cl)cc3N2CC)SC1=S
21.8%,CCOC(=O)c1[nH]c(C)c(CCC(=O)Nc2ccccc2C(=O)OC)c1C
3.0%,COc1cccc(NC(=O)Cn2nc(N3CCN(c4ccccc4)CC3)ccc2=O)c1
-25.9%,COc1ccc(-c2nc(SCC(=O)Nc3ccc4c(c3)OCO4)c(-c3ccc(F)cc3)[nH]2)cc1OC
4.1%,CCCCC(=O)N1CCc2cc(OC)c(OC)cc2C1COc1ccc(C(=O)OCC)cc1 (stereo not given)
7.3%,CCCCNc1ccc(-c2nc(-c3ccccc3)no2)cc1[N+](=O)[O-]
1.0%,Cc1ccc(NC(=O)CSc2nc(-c3ccc(C(C)(C)C)cc3)nc3cc(=O)[nH]n23)cc1C
-5.8%,CCN(Cc1ccccc1)Cc1c(O)ccc2c(=O)c(-c3ccccc3)c(C(F)(F)F)oc12
6.0%,O=C(CSc1nc2c(oc3ccccc32)c(=O)n1-c1ccccc1)Nc1ccccc1F
-37.3%,O=C(Nc1cccc(C(=O)N2CCN(c3ccccc3)CC2)c1)c1nsc2ccccc12
